Screening results from PubChem BioAssay.
VACV Venus inh: qHTS for Stage-Specific Inhibitors of Vaccinia Orthopoxvirus: Venus Reporter Primary qHTS. AID 720580, 2013. Potency, µM (top dose mostly 36.5 µM), inactives show at the top dose activity change, negative = inhibition, hits mostly inhibitors. 0.46% of 330,000 active. Vaccinia virus Venus reporter expression, fluorescence; active means well fitted inhibition curve with a large enough effect; inconclusive means small, poorly fitted or top-dose-only effect; inactive means no such curve, though single readings can be large or run the other way; tested in A549 cells; also: nearly all actives have a fitted effect of over 30% in size; inactives centre near -10
VACV mCherry inh: qHTS for Stage-Specific Inhibitors of Vaccinia Orthopoxvirus: mCherry Reporter Primary qHTS | Vaccinia virus mCherry reporter infection, fluorescence; about a quarter of the inactives have no number | Potency, µM (top dose mostly 36.5 µM), without a hit: top-dose activity change, negative = inhibition, actives largely listed as inhibitors | 0.63% of 310,000 active | AID 720579, 2013; active = well fitted inhibition curve with a large enough effect; inconclusive = small, poorly fitted or top-dose-only effect; inactive = no such curve, though single readings can be large or run the other way; tested in A549 cells; also: nearly all actives have a fitted effect of over 35% in size; inactives centre near -10
An asterisk follows results filed as active; i = inactive; ? = inconclusive; nt = not tested or not shown; & = joins results of further samples. % is scaled to controls: 0 for no effect and ±100 for the full control effect; potency is read from the fitted curve at half-maximal effect.

Every second line gives: VACV Venus inh	VACV mCherry inh
- O=c1cc(CN2CCN(S(=O)(=O)c3ccccc3)CC2)nc2sc(-c3ccccc3Cl)nn12
→ -1%	-3%
- CC12CCC(C(=O)Nc3ccccc3-n3cccc3)(CC1=O)C2(C)C (stereo not drawn)
→ -5%	-5%
- COc1ccc2nc(NC(=O)C3CCN(S(=O)(=O)c4cccs4)CC3)sc2c1
→ ?	?
- O=[N+]([O-])c1ccc(N2CCN(c3ccccc3O)CC2)c(Cl)c1
→ -24%	-15%
- CCC(C)Cn1c(C)nc2ccccc21 (stereo not drawn)
→ -23%	nt
- Cc1ccc(S(=O)(=O)Nc2ccc(NC(=O)c3c(F)c(F)c(F)c(F)c3F)cc2)cc1
→ ?	?
- CCN1C[C@@H]2[C@@H]3C(=O)N(Cc4ccccc4)C(=O)[C@@H]3[C@](CC)(C(=O)OC)N2C1=NCc1ccccc1
→ -4%	-28%
- CCOC(=O)N1CCC(NC(=O)CS(=O)(=O)Cc2nc(-c3ccccc3C)oc2C)CC1
→ -15%	-21%
- O=C(Nc1ccc(-c2csc(-c3ccccc3)n2)cc1)c1ccccc1Cl
→ ?	?
- CNc1cc(N2CCN(C)CC2)ccc1[N+](=O)[O-]
→ -7%	-4%
- Cc1cc(C)cc(NC(=O)C2CCCN(S(=O)(=O)c3cnc[nH]3)C2)c1 (stereo not drawn)
→ -10%	5%
- CC(Oc1ccccc1)c1ccn[nH]1 (stereo not drawn)
→ -1%	4%
- Cc1cccc(C)c1Nc1c(-c2ccsc2)nc2ccc(Cl)cn12
→ -14%	-12%
- Cc1ccc(S(=O)(=O)N(C)Cc2ccc(C(=O)N/N=C/c3ccc(OC(F)F)cc3)cc2)cc1
→ -8%	-1%
- COC(=O)c1cc2sccc2n1Cc1nc(-c2cccc(Cl)c2)oc1C
→ -14%&-1%	-10%
- CN(CCC1CCOCC1)C(=O)C1CCC(=O)N(CCc2cccc(F)c2)C1 (stereo not drawn)
→ -17%	i
- CC(=O)[C@@]1(O)CC[C@H]2[C@@H]3CC=C4C[C@@H](O)CC[C@]4(C)[C@H]3CC[C@@]21C
→ -26%	-20%
- Cc1nn(-c2ccccc2)c(Cl)c1C(=O)OCC(=O)NCCc1ccc(S(N)(=O)=O)cc1
→ -24%	-15%
- O=C(c1cn[nH]c1)N1CCc2c([nH]c3ccccc23)C1c1c(F)cccc1Cl (stereo not drawn)
→ -15%	10µM*
- CCOC(=O)c1[nH]c(CN2CCN(c3ccc(OC)cc3)CC2)c(C(=O)OCC)c1C
→ -8%	?
- COc1ccc(/C(C)=N/OCC(=O)Nc2nc3ccccc3s2)cc1
→ -11%	-14%
- CC(C)N(Cc1nc2ccccc2[nH]1)C(C)C
→ -12%	i
- c1ccc2c(c1)OCC(c1csc3ncnc(N4CCOCC4)c13)O2 (stereo not drawn)
→ -18%	i
- Cc1cccc(NC(=O)CSc2cn(CC(=O)N3CCOCC3)c3ccccc23)c1C
→ -4%	-3%
- O=C(NCc1ccc(F)cc1F)[C@@H]1CCCN1C(=O)[C@@H]1CCCN1C(=O)c1ccccc1
→ -5%	-12%
- C=C(C)C1CC=C(C)/C(=N/NC(=O)CCC(=O)Nc2ccccc2Cl)C1 (stereo not drawn)
→ -19%	-19%
- O=C(C[n+]1ccccc1Cl)c1ccc(F)cc1
→ -23%	i
- CCOC(=O)c1oc2ccccc2c1NC(=O)Cc1cccs1
→ 3%	-5%
- Cc1cc(C)c2c(=O)cc(C(=O)NCCc3ccc(S(N)(=O)=O)cc3)oc2c1
→ -1%	6%
- C(=Cc1c[nH]c2ccccc12)c1ccc2ccccc2n1
→ -10%	0.71µM*

Other compounds.
Every second line gives: VACV Venus inh	VACV mCherry inh
- CCOC(=O)NCCc1ccc(OC)cc1
→ -5%	nt
- Cc1c(NS(=O)(=O)c2ccc(Cl)c(C(=O)OC(C)C(=O)N3CCOCC3)c2)c(=O)n(-c2ccccc2)n1C (stereo not drawn)
→ -4%	i
- O=C(c1cccc(Cl)c1)C1CCCN(C(=O)c2ccoc2)C1 (stereo not drawn)
→ 1%	-16%
- Cc1ccc(CSc2oc(-c3ccco3)nc2S(=O)(=O)c2ccc(Br)cc2)cc1
→ -13%	-1%
- COC(=O)c1ccccc1NC(=O)C1=C(C)C(=O)OC12CCC(C)CC2 (stereo not drawn)
→ -5%	-6%
- COc1ccc(C(=O)NC2CCCc3ccccc32)cc1 (stereo not drawn)
→ -4%	-23%
- Oc1c(C(c2ccccc2)N2CCOCC2)ccc2ccccc12 (stereo not drawn)
→ -4%	-11%
- CCOc1ccc(S(=O)(=O)Nc2ccc(C(=O)NCCCN3CCCC3=O)cc2)cc1
→ -20%	i
- CSCC[C@H](NC(=O)Nc1ccc(S(N)(=O)=O)cc1)C(=O)O
→ -4%	-8%
- NNc1nc2ccccc2c(=O)n1Cc1ccccc1
→ -21%	2%
- CCOc1cc2c(Cl)ncnc2c(OCC)c1OCC
→ -12%	i
- O=C(NC1CCCC1)C(c1ccsc1)N(C(=O)Cc1cccs1)c1ccc(F)cc1 (stereo not drawn)
→ -6%	-16%
- CC[N+](CC)(CCCNC1=CC(=O)C(NCCC[N+](CC)(CC)Cc2ccccc2)=CC1=O)Cc1ccccc1
→ -9%	i
- OCCNc1nc2ccccc2[nH]1
→ -10%	-17%
- CCCCOC(=O)/C=C/c1c(C)[nH]c(=O)[nH]c1=O
→ -22%	-27%
- COc1cc(-c2nnc(COc3ccc4ccccc4c3)o2)cc(OC)c1OC
→ -20%	-21%
- COc1ccc(C2=Nc3ccccc3N(C(=O)c3ccc(C(F)(F)F)cc3)C2C(=O)NCc2ccccc2)cc1 (stereo not drawn)
→ ?	-27%
- COc1ccc(CNC(=O)C(CC(C)C)NC(=O)c2ccccc2C)cc1 (stereo not drawn)
→ -1%	-8%
- COc1cc(/C=N/NC(=O)c2cccc(C(=O)N/N=C/c3ccc(O)c(OC)c3)n2)ccc1O
→ 3%	-13%
- C=CCn1cnc2scc(-c3ccc(OC)cc3)c2c1=O
→ -10%	i
- Cc1cc2c(c(C)c1Cl)C(c1ccc3c(c1)OCO3)CC(=O)O2 (stereo not drawn)
→ -20%	-15%
- Cc1ccc(Cl)cc1N1CCN(S(=O)(=O)c2ccc3c(c2)C(C(C)C)C(=O)N3)CC1 (stereo not drawn)
→ -5%	-13%
- Cc1ccc(NC(=O)CC2Oc3ccc(C)cc3NC2=O)cc1 (stereo not drawn)
→ -3%	-7%
- Cn1c(=O)c2cc(NC(=S)NCc3ccccc3F)ccc2n1Cc1cccc(C(F)(F)F)c1
→ -23%	i
- Cc1c(Cc2ccccc2)sc(/N=C/c2ccc3ccccc3c2)c1C(N)=O
→ -13%	i
- CCN(CC(=O)Nc1c(F)cccc1F)C(=O)Cc1ccccc1
→ -4%	i
- c1ccc(-c2noc(CN3CCN(C(c4ccccc4)c4ccccc4)CC3)n2)cc1
→ 1%	i
- Cc1cc(/C=C(\C#N)C(=O)OCC(=O)Nc2ccc(OC(F)F)cc2)c(C)n1CC(C)C
→ -11%	-14%
- O=C(Cn1sc2ccccc2c1=O)Nc1ccc(Br)cc1
→ -9%	-17%
- O=C(O)c1ccc(S(=O)(=O)N2CCC3(CC2)CC(=O)c2ccccc2O3)cc1
→ -5%	-14%

Filtered by structure: those above with two or more sulfur atoms
Every second line gives: VACV Venus inh	VACV mCherry inh
- O=c1cc(CN2CCN(S(=O)(=O)c3ccccc3)CC2)nc2sc(-c3ccccc3Cl)nn12
→ -1%	-3%
- COc1ccc2nc(NC(=O)C3CCN(S(=O)(=O)c4cccs4)CC3)sc2c1
→ ?	?
- Cc1ccc(CSc2oc(-c3ccco3)nc2S(=O)(=O)c2ccc(Br)cc2)cc1
→ -13%	-1%
- CSCC[C@H](NC(=O)Nc1ccc(S(N)(=O)=O)cc1)C(=O)O
→ -4%	-8%
- O=C(NC1CCCC1)C(c1ccsc1)N(C(=O)Cc1cccs1)c1ccc(F)cc1 (stereo not drawn)
→ -6%	-16%

(list continues)
Every second line gives: VACV Venus inh	VACV mCherry inh
- COc1cc(CN(CCc2c(C)[nH]c3ccc(C)cc23)C(=S)NC(C)(C)C)cc(OC)c1OC
→ -27%	-28%
- CCCNC(=O)c1ccc(N2CCC3(CC2)CC(c2ccc(Cl)cc2)=NO3)c([N+](=O)[O-])c1
→ -26%	i
- O=C(Nn1cnnc1)c1cc(Cl)cc(Cl)c1
→ -5%	i
- COc1cccc(-c2nnc(SCC(=O)N(C)C3CCCCC3)o2)c1
→ -5%	-6%
- Cc1ccc(Nc2nnc(-c3ccc(C)c(S(=O)(=O)N4CCOCC4)c3)c3ccccc23)cc1
→ -26%	?
- CS(=O)(=O)N(CC(=O)N1CCCC1)Cc1ccccc1
→ 0%	-12%
- C=CCNC(=S)N/N=C(\C)c1cccnc1
→ 0%	-8%
- c1ccc2c(c1)nnn2-c1ncnc2sccc12
→ -4%	i
- CCOC(=O)N1CCc2c(sc3c2c(=O)n(Cc2ccccc2)c(=O)n3CC(=O)Nc2cccc(C)c2)C1
→ -6%	-19%
- CSc1ccc(CN2CCN(C3CCCC3)C(CCO)C2)cc1 (stereo not drawn)
→ -16%	?
- Cc1cccc(NC(=O)CSc2nc3ccccc3c3nc(CCn4cncc4C)nn23)c1
→ -9%	-17%
- CCOC(=O)CCSc1nc(-c2ccc3c(c2)OCO3)cc(C(F)(F)F)c1C#N
→ 0%	-9%
- Cc1noc(/C=C/N(C)C)c1S(=O)(=O)N1CCCC(C(=O)NC2CCCCC2)C1 (stereo not drawn)
→ -9%	i
- Cc1ccc(-c2nnc(-n3nc(C)cc3C)c3ccccc23)cc1
→ -17%	i
- CCCCOC(=O)c1ccc(NC(=O)CSc2nc3c(c(=O)[nH]2)CCCC3)cc1
→ 7%	7%
- Cc1cc(S(=O)(=O)N(Cc2ccccc2)Cc2ccc(N(C)C)cc2)ccc1-n1cnnn1
→ -11%	-20%
- COC/C=C/C1=CC2=CC(=O)C(C)(OC(=O)c3cnc4ccccc4n3)C(=O)C2=CN1Cc1ccco1 (stereo not drawn)
→ 1%	-13%
- COc1cc(/C=N\NC(=O)C2CC3C=CC2C3)ccc1O (stereo not drawn)
→ -16%	-25%
- CCOP(=O)(c1c(F)c(F)c(F)c(F)c1F)C1(O)CCCCC1 (stereo not drawn)
→ -13%	nt
- COC(=O)c1sc2nc(C)cc(-c3ccccc3)c2c1N
→ -7%	-2%
- COc1ccc(C2NC(=O)N(C)C3=C2C(=O)N(c2cccc(Cl)c2)C3)cc1 (stereo not drawn)
→ -6%	-5%
- COC(=O)CN(c1nc(C)cc(OC)n1)S(=O)(=O)c1ccccc1
→ -17%	-9%
- COc1ccc(N=Cc2c(O)[nH]c3ccccc23)cc1OC
→ ?	?
- CCCNC(=O)CSc1c2c(nc3ccc(Cl)cc13)CCCC2
→ -8%	-2%
- Cc1cccnc1-c1cccc2c1OC(CNC(=O)C(=O)c1ccccc1)C2 (stereo not drawn)
→ -13%	-14%
- COc1ccc(OC[C@@H](O)CNC(=O)c2cccc3c2C(=O)c2ccc(-c4ccc(F)cc4OCc4ccccc4)cc2S3(=O)=O)cc1
→ ?	?
- CC(Oc1ccc(Cl)cc1Cl)C(=O)Nc1ccc(OCC(=O)O)cc1 (stereo not drawn)
→ 5%	-1%
- O=C(OCC(=O)N1CCCC1)c1ccc(S(=O)(=O)Nc2ccccc2)cc1
→ -9%	-4%
- CC(=O)c1cccc(NC(=O)CSc2ccc(-c3ccco3)nn2)c1
→ -9%	-20%
- CC1CCN(c2ccc(NC(=O)Cc3ccccc3)cc2)CC1
→ -13%	-11%

Following part:
Every second line gives: VACV Venus inh	VACV mCherry inh
- CCOCCCN(Cc1ccco1)C(=O)c1cc2c(=O)[nH]c3ccc(C)cc3c2s1
→ -29%&-17%	?
- c1ccc(-c2csc(N3CCc4ccccc4C3)n2)cc1
→ -4%	-13%
- COc1ccc(S(=O)(=O)c2cc(NS(=O)(=O)c3ccc(Cl)cc3)c(C)c(C)c2O)cc1
→ -2%	20%
- Cc1cc(C)cc(N(CC(=O)N2CCC(C)CC2)S(C)(=O)=O)c1
→ -7%	-17%
- Cc1ccc(S(=O)(=O)CCc2nc3ccccc3[nH]2)cc1
→ -11%	-6%
- Cc1noc(C)c1COc1ccc(C(=O)N2CCN(c3cccc(Cl)c3)CC2)cc1
→ -14%	-13%
- S=C(Nc1ccccc1)Nn1cnnc1
→ -14%	i
- COc1ccc2oc(C(=O)N(C)CCOc3ccc(Cl)cc3)c(C)c2c1
→ -4%	-13%
- Cc1ccc(OCCn2c(-c3ccc(Cl)cc3)nc3ccccc3c2=O)c(C)c1
→ -4%	-13%
- O=C(Nc1ccc(F)cc1F)N1CCN(C(=O)c2ccco2)CC1
→ -10%	-1%
- Cc1cccc(C)c1-n1nnnc1C1c2ccccc2C(=O)N1CCCN1CCOCC1 (stereo not drawn)
→ -5%	-1%
- CCN(CC(=O)Nc1ccc(NC(C)=O)cc1)C(=O)c1ccc(N2CCCC2)c([N+](=O)[O-])c1
→ -7%	i
- CCCCOc1c(Cl)cc(C(=O)N(C)CC(=O)Nc2ccc(N3CCOCC3)cc2)cc1OCC
→ -10%	-9%
- Cc1nn(CC(O)CN2c3ccccc3Sc3ccccc32)c(C)c1Br (stereo not drawn)
→ ?	?
- O=C(Oc1ccccc1C(=S)N1CCCCC1)c1cc([N+](=O)[O-])cc([N+](=O)[O-])c1
→ -10%	-20%
- COc1ccc(-n2c3c(cc(C(=O)N4CCCCC4)c2=O)C(=O)CC(C)(C)C3)cc1
→ 14µM*	?
- COC(=O)c1ccccc1NC(=S)NC(=O)C1CCCCC1
→ -7%	-11%

Rows were taken by chance, and some 0.86% of all compounds hit somewhere here.
